High-throughput results (PubChem)
VDR inhibitor – blocks the human vitamin D receptor | VDR-SRC2-3 peptide fluorescence polarization, 2 h | Potency, µM, for the others: max response, negative = inhibition, actives largely listed as inhibitors | 0.93% of 400,000 active; active = well fitted inhibition curve with a large enough effect; inconclusive = small, poorly fitted or top-dose-only effect, or another doubt; inactive = no such curve, though single readings can be large or run the other way; also: series mostly up to about 120 µM
Target sequence (P11473 whole entry, looked up): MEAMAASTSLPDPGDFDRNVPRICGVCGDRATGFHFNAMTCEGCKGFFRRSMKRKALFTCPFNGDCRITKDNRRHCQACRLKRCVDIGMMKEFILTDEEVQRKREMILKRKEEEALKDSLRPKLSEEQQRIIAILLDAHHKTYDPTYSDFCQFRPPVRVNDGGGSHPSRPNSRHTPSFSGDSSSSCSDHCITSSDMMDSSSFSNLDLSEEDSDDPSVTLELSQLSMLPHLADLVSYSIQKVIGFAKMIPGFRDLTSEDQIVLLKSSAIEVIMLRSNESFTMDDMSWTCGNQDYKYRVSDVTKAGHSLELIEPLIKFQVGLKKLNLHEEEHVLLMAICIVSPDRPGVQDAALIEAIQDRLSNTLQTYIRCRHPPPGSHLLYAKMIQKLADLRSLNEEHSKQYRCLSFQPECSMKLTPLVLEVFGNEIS
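VDR–SRC2-3 interaction, FP format. Cmpds 23 nl via pintool, brief spin, 2 h ambient incubation.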
* marks the source's active call; other numbers are inactive results; ? = inconclusive; & = joins results of further samples. % is scaled to controls: 0 for no effect and ±100 for the full control effect; potency is read from the fitted curve at half-maximal effect. Not all compounds are listed. The share of hits here may be higher or lower than overall.

SMILES | VDR inhibitor
O=C1CC(N2CCC(c3nc4ccccc4o3)CC2)C(=O)N1c1ccc(Cl)c(C(F)(F)F)c1 (stereo not drawn) | -2%
O=C1CSC(=S)N1c1cccc(O)c1 | 28%
O=c1c2ccccc2nc2n1C(CSc1ccc(F)cc1)CS2 (stereo not drawn) | 7%
CCOC(=O)N1CCN(S(=O)(=O)c2ccc(F)c(C(=O)Nc3cc(C)cc(C)c3)c2)CC1 | 14%
CC(C)(C)OC(=O)NCCCCCNC(=O)c1[nH]cnc1C(=O)N[C@@H](Cc1ccccc1)C(=O)OC(C)(C)C | -18%
O=C(NCc1ccco1)c1ccc(Cn2c(=O)c3sccc3n(Cc3cccc(F)c3)c2=O)cc1 | -17%
COc1ccc(C2CC(=O)c3cnc(N)nc3C2)c(OC)c1 (stereo not drawn) | -8%
CCCN1CCN(CC(=O)Nc2nc3ccccc3s2)CC1 | -10%
N#CCSc1nc2ccccc2c(=O)n1CC1CCCC1 | -3%
CCC(=O)N(CCc1ccccc1)Cc1cc2cc3c(cc2[nH]c1=O)OCO3 | -2%

SMILES | VDR inhibitor
Cc1ccc(N(CC(=O)NC2CCCCC2)C(=O)Cn2nnc(-c3ccc(C)o3)n2)cc1 | 9%
COc1ccc(-c2oc3ccccc3c(=O)c2OC(C)=O)cc1 | -12%
CC1(C)CC(C(CCN(Cc2ccccc2)C(=O)c2ccco2)c2ccc(F)cc2)CCO1 (stereo not drawn) | -13%
Clc1ccccc1Nc1nc(-c2cccnc2)cs1 | -1%
CCOC(=O)c1ccc(-n2c(=S)sc3c(=O)[nH]c(C)nc32)cc1 | 50µM*
COc1ccc(-c2nc(CN3CCC(C(=O)NCc4ccc(F)cc4)CC3)c(C)o2)cc1OC | -15%
Cc1ccc2cc(CCNS(=O)(=O)c3ccc(Cl)cc3)c(=O)[nH]c2c1C | -4%
O=C1CCC[C@@H]2C[C@@]3(C[C@@H]4CCN1[C@H]24)Nc1cc(Cl)ccc1NC3=NCc1ccccc1 | -3%
CN(C)S(=O)(=O)c1ccc(Cl)c(NC(=O)CN2CCC(Cc3ccccc3)CC2)c1 | -7%
COc1ccc(C)cc1NC(=O)C(=O)NCC1(c2ccccc2)CCCC1 | 13%

SMILES | VDR inhibitor
N#Cc1ccc(C(=O)NC2=NCCS2)cc1 | -11%
O=C(NN=c1c(=O)c2ccccc2c1=O)c1ccccc1 | -32%
CCNC(=S)N(Cc1cc2cc(C)c(C)cc2[nH]c1=O)C1CCCC1 | -15%
CC(OC(=O)CCN=C1NS(=O)(=O)c2ccccc21)C(=O)c1ccccc1 (stereo not drawn) | -14%
CCC(=O)Nc1cccc(NC(=O)c2ccc(C)c([N+](=O)[O-])c2)c1 | -8%
NS(=O)(=O)c1ccc(Nc2ncccc2[N+](=O)[O-])cc1 | 13%
N#Cc1ccc(OCC(=O)N2CCN(S(=O)(=O)c3ccc(Cl)s3)CC2)cc1 | 23%
COc1cc(/C=N/N(C)C)ccc1OC(=O)c1ccco1 | 5%
CC(=O)Nc1ccc(OCCOc2ccc(/C=C3\C(=N)N4N=C(C(C)C)SC4=NC3=O)cc2)cc1 | -15%
COc1ccc(OCC(=O)Nc2nccs2)cc1 | 3%

SMILES | VDR inhibitor
Nc1nnc(SCC(=O)c2ccco2)s1 | -1%
CCCCn1cc(S(=O)(=O)c2ccc(Cl)cc2)c(=O)c2cc(F)c(N3CCCC(C)C3)cc21 (stereo not drawn) | 5%
COc1ccc(-c2[nH]c(-c3ccc(SC)cc3)nc2SCC(=O)Nc2nccs2)cc1 | -20%
O=C(/C=C/c1ccccc1)Nc1cccnc1Oc1ccccc1F | 8%
Cc1cc(NC(=O)C(C)SCC(=O)Nc2nnc(CC(C)C)s2)no1 (stereo not drawn) | -24%
O=[N+]([O-])c1ccc(S(=O)(=O)CC(CN2CCOCC2)N2CCOCC2)cc1 (stereo not drawn) | -2%
C/C(=C/C(=O)Nc1cccc(F)c1)N1CCCC1 | -16%
COc1ccccc1N1CCN(S(=O)(=O)c2cnc[nH]2)CC1 | -1%
C[C@H](CO)N1C[C@H](C)[C@@H](CN(C)S(=O)(=O)c2cccs2)Oc2ccc(NC(=O)Nc3ccc4c(c3)OCO4)cc2C1=O | -9%
CN1CCN(C(=O)c2cnn(-c3ccccc3)c2NC(=O)c2ccccc2F)CC1 | 3%

SMILES | VDR inhibitor
COc1ccc(CNC(=O)CCc2c(C)nc3ncnn3c2C)cc1 | -1%
CCOC(=O)c1cccc(NC(=O)c2cc3c(=O)n(Cc4ccccc4)ccc3nc2C)c1 | 11%
CCc1noc(C)c1C(=O)Nc1ncc(C)s1 | 4%
COc1ccccc1CNS(=O)(=O)c1cc(C(=O)NCc2ccccn2)c(Cl)cc1Cl | 1%
O=C(Nc1nnc(-c2ccc(Cl)s2)o1)C1CCCCC1 | 15%
Cc1ccc(SCC(=O)NCc2ccccc2C)cc1 | 7%
Cc1ccc(CN2CCSc3ccc(C(=O)N4CCOCC4)cc32)cc1 | -8%
CCCc1cc(=O)[nH]c(/N=C(\N)Nc2ccccc2)n1 | 1%
Cc1cccc(C)c1NC(=S)NNc1ncc(C(F)(F)F)cc1Cl | 0%
Cc1cc(C)c(S(=O)(=O)N2CCCCCC2)cc1Br | -11%

SMILES | VDR inhibitor
Cc1ccc(C(=O)OCC(=O)Nc2cccc(S(=O)(=O)NC3=NCCCCC3)c2)c(C)c1 | -7%
COCCNC(=O)c1ccc2c(=O)n(CCc3ccccc3)c(SCC(=O)CC(=O)OC)nc2c1 | 4%
O=C(CN1C(=O)c2ccccc2C1=O)Nc1sc2c(c1C(=O)NCc1ccco1)CCCC2 | -1%
Cn1c(SCC(=O)Nc2ccccc2)nc2c([nH]c3ccccc32)c1=O | 11%
COc1ccc(C2(c3ccc(OC)cc3)NC(=O)N(CC(=O)N(C)C3CCC(C)CC3)C2=O)cc1 (stereo not drawn) | -1%
COC(=O)c1cccc(NC(=O)c2ccc3c(c2)C(=O)N(Cc2cccnc2)C3=O)c1 | -5%
CC1CCN(S(=O)(=O)c2cccc(C(=O)N(C)C3(C)CCS(=O)(=O)C3)c2)CC1 (stereo not drawn) | -15%&5%
O=C(c1cc2cc([N+](=O)[O-])ccc2oc1=O)N1CCN(c2ncccn2)CC1 | 7%
CC(Oc1ccc(F)cc1F)C(=O)/C=C/N(C)C (stereo not drawn) | 10%
O=C(O)CCc1nn2c3ccccc3n(Cc3ccccc3F)c2nc1=O | ?

SMILES | VDR inhibitor
O=S(=O)(c1ccccc1)N1N=C(c2ccc(Cl)cc2)CC1c1ccco1 (stereo not drawn) | 6%
Cc1cccc(C)c1Nc1c(-c2ccccc2O)nc2ncccn12 | -13%&12%
CCCCCCn1nc(C(=O)OCC(=O)NC2CCS(=O)(=O)C2)c2ccccc2c1=O (stereo not drawn) | -19%
Cc1noc(C)c1S(=O)(=O)N1CCN(c2ccccc2)CC1 | 4%
CN1CCC(OC(c2ccccc2)c2ccccc2)CC1 | -9%&0%&8%
CNC(=O)c1cc2c(s1)-c1ccccc1CC2 | 17%
COc1ccc(N2CC(NC(=O)c3cccs3)CC2=O)cc1 (stereo not drawn) | 5%
Cn1nccc1C(=O)Nc1ccc(Cl)cc1 | 15%
CC(=O)N1N=C(c2ccncc2)OC12CCCCCC2 | 13%
CCOc1ccc2nc(NCCNC(=O)C(C)C)c(C)cc2c1 | -8%

SMILES | VDR inhibitor
Cn1c(SCC(=O)c2ccc(F)cc2)nnc1-c1cccnc1 | -3%
CCCCN(CCCC)S(=O)(=O)c1ccc(NC(=O)c2cccs2)cc1 | 23%
Cc1[nH]c2ccccc2c1C(=O)C(=O)N1c2ccccc2CC1C (stereo not drawn) | ?
Cc1ccc(-n2c(=O)c3c(cnn3C)n(Cc3ccccc3F)c2=O)cc1 | 3%
O=C(Nc1ccc(SC(F)F)cc1)c1cc(-c2cccs2)on1 | 1%
COC(=O)c1cc(NC(=O)c2nn(C)c(=O)c3ccccc23)cc(C(=O)OC)c1 | -6%
CCOc1ccc(CNC(=O)c2ccc(Sc3ccc(Cl)cc3)c(NC(C)=O)c2)cc1OC | -6%&-10%
COc1ccccc1OCCNC(=O)C1CC(=O)N(c2ccc3c(c2)OCCO3)C1 (stereo not drawn) | -20%
CCOc1ccc(C2=CSC3=NCCN23)cc1Cl | 79µM*
O=C(NC1CCN(Cc2ccccc2)CC1)c1c(Cl)cccc1Cl | 12%

A different layout for part of the listing above:
VDR inhibitor	mol
-6%	COC(=O)c1cc(NC(=O)c2nn(C)c(=O)c3ccccc23)cc(C(=O)OC)c1
?	Cc1[nH]c2ccccc2c1C(=O)C(=O)N1c2ccccc2CC1C (stereo not drawn)
1%	O=C(Nc1ccc(SC(F)F)cc1)c1cc(-c2cccs2)on1
12%	O=C(NC1CCN(Cc2ccccc2)CC1)c1c(Cl)cccc1Cl
-20%	COc1ccccc1OCCNC(=O)C1CC(=O)N(c2ccc3c(c2)OCCO3)C1 (stereo not drawn)

(cont.)
SMILES | VDR inhibitor
Cc1ccc2c(c1)CN1CN2Cc2cc(C)ccc21 | 10%
COc1ccc(-c2cc(C(F)(F)F)n3ncc(C(=O)O)c3n2)cc1OC | 2%
Cc1cc(-n2nc(C)cc2C)n2nc(C)c(-c3ccc(Cl)cc3)c2n1 | -5%
COc1ccc(OCCC(=O)N2CCCCC2)cc1 | -12%
CC(=O)Nc1ccc(S(=O)(=O)Nc2cccc(-c3ccc(N4CCC(C)CC4)nn3)c2)cc1 | 11%
CC(Oc1ccc(Cl)cc1)c1ccn[nH]1 (stereo not drawn) | 12%
COc1ccc(C(=O)Nn2c(SCC(=O)c3ccc(Cl)cc3)nc3ccccc3c2=O)cc1 | 22%
O=Cc1ccc(C(=O)OCC(=O)N2CCCC2)cc1 | -10%
COc1ccc(Br)cc1C1C(C(=O)Nc2ccc(C)cc2C)=C(C)Nc2ncnn21 (stereo not drawn) | 10%
Cc1ccc2nc(CSc3nc(C)ccc3C#N)[nH]c2c1 | -12%

SMILES | VDR inhibitor
O=C(CCCc1ccccc1)Nc1cccc2c1CCCC2 | 9%
O=C(CNC(=O)c1ccc(Cl)cc1Cl)OC1CCCCC1=O (stereo not drawn) | 6%
Nc1ccc(S(=O)(=O)NCC2CCCCO2)cc1 (stereo not drawn) | 9%
COc1cccc(C2CC(c3c(F)cccc3Cl)n3nc(N)nc3N2)c1 (stereo not drawn) | 8%
CCn1cc(S(=O)(=O)c2ccc(C)cc2)c(=O)c2cc(OC)ccc21 | -7%
CC1(C)Cc2cccc(C(=O)NCc3ccco3)c2O1 | -4%
CCN(CC)c1ccc(NC(=O)c2c(OC)cccc2OC)c(C)c1 | 8%
Cc1ccc2c(c1)C(=O)OC(C(=O)Nc1ccccc1C(=O)O)C2 (stereo not drawn) | 17%
CC(C)(C)C1CCC(=NNC(=O)c2ccc(Br)o2)CC1 (stereo not drawn) | -9%
CCS(=O)(=O)N1CCc2cc(C(=O)NCCc3ccc(OC)c(OC)c3)ccc21 | 21%

SMILES | VDR inhibitor
Cc1ccc(C(=O)OC(C)C(=O)N(C)C2CCCCC2)cc1S(=O)(=O)N1CCCCC1 (stereo not drawn) | -29%
CCCCCCCCS(=O)c1sc2nc3c(cc2c1N)CCCC3 (stereo not drawn) | -5%
CS(=O)(=O)Nc1cccc(-c2nc(N3CCOCC3)c3ccccc3n2)c1 | 10%
CCc1nn(CC(=O)NC(C)CCc2ccccc2)c(=O)c2cc3cc(F)ccc3n12 (stereo not drawn) | -12%&-5%
COC(=O)N1CCC2(CCCN(C(=O)Nc3cccc(F)c3)C2)CC1 | -18%
CCn1c(CC(=O)Nc2ccccc2F)nnc1SCC(=O)Nc1nncs1 | -2%
Cc1cc2c(cc1C)NC(CC(=O)Nc1ccccc1)C(=O)N2 (stereo not drawn) | 3%
O=C(c1ccccc1NS(=O)(=O)c1ccc2c(c1)OCCO2)N1CCOCC1 | 18%
Cc1cc([N+](=O)[O-])ccc1NC(=O)CSc1nccc(=O)[nH]1 | 21%
Cc1cc(SCc2cccc(Cl)c2)nc(=O)[nH]1 | -17%

SMILES | VDR inhibitor
O=C(Nc1cccc(F)c1)c1ccc(Br)o1 | -15%&1%
CCCCCn1c(=O)[nH]c2cc(C(=O)NCc3ccc(Cl)cc3)ccc2c1=O | -13%
COc1cc(NC(=O)C2CCN(S(=O)(=O)c3cccnc3)CC2)cc(OC)c1OC | -11%
CCc1nnc(NC(=O)c2cc(Cl)ccn2)s1 | -11%
CCc1ccc(NC(=O)C(=O)NCC2CCCN2S(=O)(=O)c2ccccc2)cc1 (stereo not drawn) | -13%
O=C(Cl)CCCCCCCC(=O)Cl | -1%
O=c1cc(-c2ccccc2)oc2cc(O)cc(O)c12 | -5%&2%
COc1cccc(CCNC(=O)c2ccc(OC)c(OC3CCN(C(C)C)CC3)c2)c1 | -16%
CC(=O)Nc1cnc(NC(=O)c2cccc(F)c2)cc1C | 6%
CSCC(=O)NC1CCCc2c1cnn2-c1ccc(C)c(C)c1 (stereo not drawn) | -1%

SMILES | VDR inhibitor
Cc1ccc(-c2ccc(=O)n(CCC(=O)NCc3ccccn3)n2)cc1 | -7%
CCOC(=O)c1c(S(=O)(=O)NCCc2ccccc2)c(C)n(C)c1C | -10%
CC(C)(C)CC(C)(C)NCC(=O)Nc1c2c(nc3ccccc13)CCC2 | -14%
CN(c1ccccc1)S(=O)(=O)c1ccc(Cl)c(C(=O)OCC(N)=O)c1 | 12%
COCCn1c(=O)c(-c2cccc(C#N)c2)nc2cnc(Oc3cccc(Cl)c3)nc21 | -1%
COc1ccc(Cl)cc1NC(=O)c1cc(-c2cc(C)ccc2O)n[nH]1 | -2%
COc1ccc(CNC(=O)CSCc2nc(-c3ccccc3C)oc2C)cc1 | 9%
COc1ccc(NC(=O)CN(C)C(=O)C2CSC3(C)CCC(=O)N23)cc1 (stereo not drawn) | -18%
COc1ccc(/C=N/N=C/c2c[nH]c(=O)c(C#N)c2Nc2ccccc2)cc1 | 25%
